# Source: PubChem
# Vaccinia mCherry: qHTS for Stage-Specific Inhibitors of Vaccinia Orthopoxvirus: mCherry Reporter Primary qHTS. 0.63% of 310,000 active. Potency, µM (titrated, usually from 36.5 µM), for the others: top-dose activity change, negative = inhibition, usual class: inhibitors. Vaccinia virus mCherry reporter infection, fluorescence; about a quarter of the inactives have no number; active = well fitted inhibition curve with a large enough effect; inconclusive = small, poorly fitted or top-dose-only effect; inactive = no such curve, though single readings can be large or run the other way; tested in A549 cells; further: nearly all actives have a fitted effect of over 35% in size; inactives centre near -10
# VACV Venus inh: qHTS for Stage-Specific Inhibitors of Vaccinia Orthopoxvirus: Venus Reporter Primary qHTS; 0.46% of 330,000 active; AID 720580, 2013; Vaccinia virus Venus reporter expression, fluorescence; Potency, µM (titrated, usually from 36.5 µM), without a hit: at the highest dose activity change, negative = inhibition, hits mostly inhibitors; active means well fitted inhibition curve with a large enough effect; inconclusive means small, poorly fitted or top-dose-only effect; inactive means no such curve, though single readings can be large or run the other way; tested in A549 cells; further: nearly all actives have a fitted effect of over 30% in size; inactives centre near -10
# The depositor's hits bear a star; i = inactive; ? = inconclusive; . = no result given; & = joins results of further samples; [ ] = another dose, or the depositor's remark. On the % scale 0 is the no-effect control and ±100 the full control effect; potency means the concentration at half of the fitted maximal effect.
nr | mol | Vaccinia mCherry | VACV Venus inh
1 | COc1ccc(-c2sc3ccc(N4CCOCC4)cc3c2C#Cc2ccsc2)cc1 | ? | -19%
2 | CC1(C(=O)NS(=O)(=O)c2ccc(Cl)cc2)CCN1C(=O)CCc1ccc(Cl)cc1Cl (configuration not stated) | i | -2%
3 | CN1CCCN(S(=O)(=O)c2ccccc2)CC1 | -6% | -8%
4 | Cc1cc(OCC(=O)NCC2CCC(C(=O)O)CC2)c2c(C)cc(=O)oc2c1 (configuration not stated) | -3% | -4%
5 | COc1ccc(N2CCN(c3nc(Nc4ccc(C)c(F)c4)nc(N4CCCC4)n3)CC2)cc1 | -15% | 1%
6 | Cn1cc([N+](=O)[O-])c(C(=O)Nc2nc(-c3ccc(Cl)cc3)cs2)n1 | . | 11µM*
7 | O=S(=O)(c1ccccc1)N(CC1CO1)c1ccccc1 (configuration not stated) | -5% | -4%
8 | O=C(Cn1cnc2c(cnn2-c2ccc(F)cc2)c1=O)OCc1ccccc1 | -2% | -6%
9 | O=C(C1CCC1)N(CCc1ccccc1)Cc1nc2ccccc2c(=O)[nH]1 | -2% | -3%
10 | COc1ccc([C@@H]2CC=C(C(=O)O)[C@H](c3ccc(C)cc3)N2S(=O)(=O)c2ccc(C)cc2)cc1OC | -4% | -2%
11 | COc1cc2c(cc1OC)CN(c1ccc(F)cc1[N+](=O)[O-])CC2 | -25% | -21%
12 | COc1ccc(OC)c(NC(=O)N2CCC(CN3CCCCC3)CC2)c1 | -3% | -1%
13 | NC(=O)COc1ccccc1C(=O)O | i | 1%
14 | CN(C1CCCCC1)S(=O)(=O)c1ccc(S(=O)(=O)N2CCCC2)cc1 | i | -4%
15 | N#Cc1c(N)nc2c(c1-c1ccc3c(c1)OCO3)CCc1ccccc1-2 | ? | ?
16 | CC(C)(C)c1ccc(C(=O)Nc2ccc(Oc3cccnc3)nc2)cc1 | -24% | ?
17 | CNC(=O)c1ccc(Nc2nnc(-c3ccc(C)c(S(=O)(=O)NCC4CCCO4)c3)c3ccccc23)cc1 (configuration not stated) | -13% | 2%
18 | CN1CCN(C(=O)c2cc3c(ccc4ccccc43)oc2=O)CC1 | -3% | 5%
19 | COc1ccccc1-c1nnc(SCC(=O)Nc2ccc(N3CCOCC3)cc2)n1N | -15% | 3%
20 | O=C(Cc1c(F)cccc1Cl)NCC1CCCO1 (configuration not stated) | -13% | -1%
21 | CCOCC(=O)NCc1ccc2c(c1)cc(C)n2C | 9% | 6%
22 | NC1=C(c2ccc([N+](=O)[O-])cc2)C(=O)CO1 | i | -8%
23 | COc1ccc(C(=O)CSc2nnc(CN3CCCCC3)n2-c2ccc(F)cc2)cc1 | ? | -5%
24 | CNS(=O)(=O)c1cccc(C(=O)NCC2(N3CCOCC3)CCCCC2)c1 | -1% | -5%
25 | COc1ccc(NC(=S)NCc2ccco2)cc1 | i | -12%
26 | COc1ccc(OC)c(NP(=O)(Oc2ccccc2)Oc2ccccc2)c1 | -22% | -14%
27 | O=C1CCC/C(=N\NC(=O)c2ccc(COc3cccc4cccnc34)cc2)C1 | -21% | -10%
28 | CC(Sc1nncs1)C(=O)NCC(=O)Nc1ccc(F)c(F)c1F (configuration not stated) | -11% | 1%
29 | CCC(C(=O)NC1CCCC1)N(C(=O)c1snc(C(N)=O)c1N)c1ccc(OC)c(OC)c1 (configuration not stated) | -2% | 4%
30 | COc1c(Cl)cnn(-c2ccc(C)cc2)c1=O | -14% | -10%
31 | Cc1ccc(S(=O)(=O)Cn2nnnc2C(c2ccccn2)N2CCN(c3ccccc3)CC2)cc1 (configuration not stated) | -3% | 1%
32 | Cc1cccc(OCC(=O)NC(Cc2ccccc2)C(=O)O)c1 (configuration not stated) | i | 0%
33 | CCOc1cc(CNC(=O)c2cc(-c3ccc(Cl)s3)nc3ccccc23)ccc1OC | -18% | -20%
34 | CC(=O)N1CCC(=O)N(C(C)C)c2ccccc21 | . | -5%
35 | COc1ccc(N2CCN(C(=O)CCC(=O)c3cc(C)sc3C)CC2)cc1 | -22% | -11%
36 | CCOc1ccc(S(=O)(=O)Nc2ccc(-c3ccc(N4CCCC4)nn3)cc2)cc1 | -2% | -2%
37 | Cc1ccc2c(c1)N(C(=O)N1CCC(C(=O)NCc3cccs3)CC1)CC(C)O2 (configuration not stated) | -8% | -22%
38 | COc1ccc(-c2cnnn2-c2ccc(NC(=O)c3ccc(S(=O)(=O)N(C)C)cc3)cc2)cc1 | -27% | ?
39 | O=C(O)CCSCc1ccccc1F | . | ?
40 | CCOc1ccc(NC(=O)CSc2cn[nH]n2)cc1 | -5% | -12%

# Entries by screen from the entries so far.
# Vaccinia mCherry for entries 27–38 → -21%, -11%, -2%, -14%, -3%, i, -18%, ., -22%, -2%, -8%, -27%
# VACV Venus inh for entries 27–38 → -10%, 1%, 4%, -10%, 1%, 0%, -20%, -5%, -11%, -2%, -22%, ?

# Following part:
nr | mol | Vaccinia mCherry | VACV Venus inh
41 | CNC(=O)c1ccc(CN(C)C(=O)c2cccc(S(=O)(=O)N3CCc4ccccc4C3)c2)cc1 | -14% | -21%
42 | O=C(NCCN1CCOCC1)c1ccc2c(c1)N(Cc1cccc(Cl)c1)C(=O)c1ccccc1S2(=O)=O | -13% | -2%
43 | C=C1CC(COc2ccc3c(C)c(Cl)c(=O)oc3c2)(c2ccccc2)OC1=O (configuration not stated) | 10µM* | 11µM*
44 | Cc1[nH]c(=O)c(C#N)c(C)c1Cc1ccc(Cl)cc1Cl | -5% | -5%
45 | CN(CC(=O)NC1CCCCC1)S(=O)(=O)c1ccc(Cl)cc1 | -14% | -8%
46 | CCO[C@H]1OC(C(=O)N2CCN(Cc3ccccc3)CC2)=C[C@@H](C)[C@@H]1CCCO | -17% | -5%
47 | COC(=O)c1ccc(OCC(=O)c2cccc(OC)c2)cc1 | -15% | -5%
48 | Cc1ccn2c(=O)c(C(=O)Nc3ccc(F)c(C(F)(F)F)c3)cnc2c1 | -8% | -3%
49 | Nc1nc2c(ncn2[C@@H]2O[C@H](CNS(=O)(=O)N3CCc4ccccc4C3)[C@@H](O)[C@H]2O)c(=O)[nH]1 | 9% | 6%
50 | COC(=O)c1c(NC(=O)COC(=O)[C@@H](NS(=O)(=O)c2ccc(C)cc2)C(C)C)sc2c1CCC2 | -21% | -12%
51 | NC(=O)c1ccsc1NC(=O)c1ccc(S(=O)(=O)N2CCCc3ccccc32)cc1 | -9% | ?
52 | Cc1cc(NS(=O)(=O)c2ccc(NC(=O)COc3c(C)ccc(C)c3C)cc2)nc(C)n1 | -8% | 0%
53 | Fc1ccc(NC(=S)NN2CCOCC2)cc1Cl | -11% | 1%
54 | NC(=O)Cn1cc(/C=N\NS(=O)(=O)c2ccc(F)cc2)c2ccccc21 | -7% | -1%
55 | Cc1nn(-c2ccccc2)c(C)c1CC(=O)NCC1Cc2cc(F)cc(-c3cccnc3)c2O1 (configuration not stated) | -1% | 0%
56 | Cc1ccccc1C(=O)NCCNC(=O)c1cnccn1 | i | -2%

# Part of the list above in order of molecular weight, smallest number first:
nr | mol | Vaccinia mCherry | VACV Venus inh
56 | Cc1ccccc1C(=O)NCCNC(=O)c1cnccn1 | i | -2%
53 | Fc1ccc(NC(=S)NN2CCOCC2)cc1Cl | -11% | 1%
51 | NC(=O)c1ccsc1NC(=O)c1ccc(S(=O)(=O)N2CCCc3ccccc32)cc1 | -9% | ?
52 | Cc1cc(NS(=O)(=O)c2ccc(NC(=O)COc3c(C)ccc(C)c3C)cc2)nc(C)n1 | -8% | 0%

# (list continues)
nr | mol | Vaccinia mCherry | VACV Venus inh
57 | CC[C@@H](CO)C1CC2NC3CC4(c5ccccc5N(C)[C@@H]24)C(O)C31 (some centres not stated) | 0% | -4%
58 | CN(C)c1ccc(C(=O)NNC(=O)C23CC4CC(CC(C4)C2)C3)cc1 | -20% | -13%
59 | CCCCNC(=O)C1CC(c2ccc(C(F)(F)F)cc2)=NO1 (configuration not stated) | i | -4%
60 | Cc1c(Br)c(=O)oc2cc(OCC(=O)N3C[C@H]4C[C@@H](C3)c3cccc(=O)n3C4)ccc12 | -14% | -1%
61 | O=C(O)CCSc1nnc(COc2ccc([N+](=O)[O-])cc2)n1-c1ccccc1 | -1% | -3%
62 | COc1ccc(-n2ccnc(NCc3cccs3)c2=O)cc1 | -18% | -14%
63 | COc1ccccc1NC(=O)Cn1nc(-c2ccncc2)nc1SCC(=O)NC1CCCC1 | i | -9%
64 | Cc1ccc(N=Cc2c(C)[nH]n(-c3nc4ccccc4[nH]3)c2=O)cc1 | -4% | -12%
65 | O=C(c1ccccc1)N1CCCCCC1 | i | -21%
66 | CCOC(=O)C1CCCN(c2c(NCc3ccco3)c(=O)c2=O)C1 (configuration not stated) | 9% | 2%
67 | Cn1nccc1C(=O)N1CCCC(N2CCN(Cc3ccc4c(c3)OCO4)CC2)C1 (configuration not stated) | i | -13%
68 | Cc1ccccc1-c1nc(CS(=O)(=O)CC(=O)N(C)C2CCCCC2)c(C)o1 | ? | ?
69 | N#C/C(=C\c1cccc(Cl)c1)c1n[nH]c(Cn2cncn2)n1 | -8% | -5%
70 | O=C(c1ccc2c(=O)n3c(nc2c1)CCC3)N1CCCSC1=Nc1ccccc1 | ? | -22%
71 | COc1ccc(C2NC(=O)NC(C)=C2C(C)=O)cc1 (configuration not stated) | . | 5%
72 | CCC(=O)NCCc1nc2cc(NC(=O)c3ccc(OC)cc3)ccc2n1C | i | -15%
73 | CC(C)c1cc(C(=O)NCc2ccco2)no1 | i | -12%
74 | CC(=O)c1ccc(N2CCN(S(=O)(=O)c3c(C)[nH]c(=O)[nH]c3=O)CC2)cc1 | -3% | -16%
75 | CCN1CCN(CC(O)COCc2cc(OC)c(OC)c(OC)c2)CC1 (configuration not stated) | -1% | 0%
76 | CCN1CCN(C(=O)C2CCCN(S(=O)(=O)c3ccc(OC)c(OC)c3)C2)CC1 (configuration not stated) | -12% | -2%
77 | O=C(Nc1cnc2ccccn2c1=O)c1ccc(F)cc1 | -19% | -7%
78 | COc1cc(C)c(/C=C/C(C)=C/C=C/C(C)=C/C(=O)O)c(C)c1C | -6%&0% | -16%&-13%
79 | O=C(Cc1ccsc1)NCc1ccccc1F | -1% | -5%
80 | C[C@@]12C(=O)N(Cc3ccc(F)cc3)CC(=O)N1[C@H]1c3cc(Cl)ccc3OC[C@@H]1[C@@H]2c1ccccc1 | -1% | -20%
81 | COc1ccc(C(=O)NCCNC(=O)c2cc(OCC(F)(F)F)ccc2OCC(F)(F)F)cc1 | . | ?
82 | CCCCN1C(=O)C(=O)NC[C@H]1Cc1cccc2ccccc12 | -12% | -11%
83 | COc1ccccc1CC(=O)N1CCN(c2cccc(Cl)c2)CC1 | -4% | -18%
84 | CC1(c2nnnn2-c2ccc3c(c2)OCCO3)CCC(=O)N1C1CC1 (configuration not stated) | -7% | 2%
85 | COc1ccc(-c2nc3ccc(Cl)cn3c2Cc2cccc(Cl)c2)cc1OC | 46%[activator] | 11%
86 | O=C(O)C(NS(=O)(=O)c1ccc(F)cc1)c1ccccc1 (configuration not stated) | i | -8%
87 | Cc1cc(C(=O)NCc2ccccc2)c2c(C)nn(-c3cccc(Cl)c3C)c2n1 | -14% | -20%
88 | CC(=O)Nc1cc(C(=O)N2CCOCC2)ccc1S(=O)(=O)c1ccc(C)cc1 | -13%[1.46 µM] | -11%
89 | CC(=O)N(CCP(=O)(c1ccccc1)c1ccccc1)Cc1ccco1 | . | 5%
90 | CC(C)c1nnc(SCC(=O)NC2CCCC2)n1C | i | -5%
91 | Cc1ccc(CNC(=O)c2ccc(Cn3cc(-c4ccc(C)cc4)nc3-c3ccncc3)cc2)cc1 | -24% | ?
92 | COc1ccccc1C(=O)Nc1ccc2c(c1)CC1(C(=O)N(C)C(=O)N(C)C1=O)C1CCCN21 (configuration not stated) | i | 1%
93 | COc1cc(S(=O)(=O)NC2CCCCC2)c(C)cc1C | -45% | -19%
94 | O=C(O)COc1ccccc1C1C2C(=O)N(c3ccc(F)cc3)C(=O)C2ON1c1ccccc1 (configuration not stated) | i | -4%
95 | N#Cc1ccc(C(=O)Nc2cccc(NC(=O)c3ccco3)c2)c(F)c1 | i | -10%
96 | COc1ccc2c(c1OC)C(=O)N1N=C(c3ccccc3)CC21 (configuration not stated) | -16%[1.46 µM] | -29%
97 | CNC(=S)N(Cc1ccc(OC)cc1)C1CC(=O)N(c2ccc(Cl)cc2)C1=O (configuration not stated) | -15% | -24%
98 | CCc1nc(NCC2CCCN2CC)c2nnn(Cc3ccccc3F)c2n1 (configuration not stated) | i | -10%
99 | Oc1ccccc1Oc1ncc(Br)c(N2CCOCC2)n1 | -10% | ?
100 | COc1ccc(-c2sc(Nc3ccccc3)n[n+]2-c2ccc(F)cc2)cc1Br | -14% | -19%
101 | CCOc1ccc(NC(=O)c2sc(-n3nc(C)c(CCC(C)C)c3C)nc2C)cc1 | -12% | -8%
102 | CCN(CC)S(=O)(=O)c1cccc(C(=O)NCc2ccccc2)c1 | -9% | -8%
103 | NCCCNc1nc(N)c([N+](=O)[O-])c(NC2CCCCC2)n1 | ? | 3.2µM*
104 | CC(C)OC(=O)CC(=O)CSc1nc2c(cc1C#N)CCCC2 | -10% | -3%
105 | Cc1cccc(OCC(=O)NN2C(=O)C3C4C=CC(O4)C3C2=O)c1 (configuration not stated) | -12% | 1%
106 | O=C(Nc1ccc(F)cc1)c1oc2ccccc2c1NC(=O)C1CCCC1 | i | -1%
107 | N#Cc1c(NC(=O)c2ccc([N+](=O)[O-])o2)sc2c1CCC2 | ? | ?
108 | Cc1ccc(N2CCN(CC(O)COc3ccc([N+](=O)[O-])cc3)CC2)cc1 (configuration not stated) | -16% | -14%
109 | O=C(NNC(=O)c1ccccc1-n1cccc1)c1ccccc1 | . | -6%
110 | Cn1cc(-c2cc3n(n2)CCC(=O)N3CC(=O)NCc2ccccc2)c2ccccc21 | i | -5%
